Ab BasE inh = BasE siderophore biosynthesis inhibition; purified BasE, fluorescence polarization binding displacement; inhibition, % (concentration not given with the values); 84,000 compounds, 0.1% hits; AID 485350;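 active = both replicates above 25% with normal brightness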;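 note: 0% = negative plate control signal and 100% = positive plate control signal; stock transfer was 100 nL into about 30 µL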
KSHV LANA nucl = inhibitors of KSHV LANA binding to nucleosomes; 51,000 compounds, 0.3% hits; FITC-LANA1-23 / chicken nucleosome fluorescence polarization; hits give low values; z-score (test concentration not listed);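 active = both repeat wells score below -2 in polarization z-score versus plate sample wells, excluding overly bright wells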;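 note: 100 nL library stock added to about 30 µL; numbers are from one replicate; some results filed as inactive read as strong as hits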
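Assay system: FITC-LANA peptide and chicken nucleosomes; input: 240 nM purified chicken nucleosomes (480 nM peptide binding sites), final; also added: 50 nM FITC-LANA1-23 probe; medium: TEN-BT buffer, pH 7.5; doses: pin-transferred compound, 100 nL; times: 10–45 min, room temperature; technique: fluorescence polarization; replication: duplicates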
Starred values were filed as active, the others as inactive; & = joins results of further samples.

How did COC(=O)CSc1nnc(C2CCCCC2)o1 do in these assays?
Ab BasE inh: 1.0; KSHV LANA nucl: 1.5

What do the screens show for `CC1CN(c2nc(-c3ccccc3)nc3ccccc23)CC(C)O1` (stereo not given)?
Ab BasE inh: 2.9

What do the screens show for `Cc1cc(C)c(OCC(=O)N/N=C/c2ccc(O)cc2O)c(Br)c1`?
Ab BasE inh: 0.0; KSHV LANA nucl: 0.082

Results for O=C(CSc1ncccn1)N(Cc1ccccc1)C1CCS(=O)(=O)C1 (stereo not given) ?
Ab BasE inh: 0.9

Results for O=C1/C(=C/c2cccs2)SC(=S)N1CCCC(=O)N1c2ccccc2Sc2ccccc21 ?
Ab BasE inh: 3.6

How did CC(C(=O)N(C)c1ccccc1)N1CCN(c2ccc(C(F)(F)F)cn2)CC1 (stereo not given) do in these assays?
Ab BasE inh: 0.2

Results for CCOC(=O)c1ccc(Nc2nc3nonc3nc2NCc2ccco2)cc1 ?
Ab BasE inh: -1.9; KSHV LANA nucl: 0.45

Results for O=c1cc(NCCc2ccccc2)c2ccccc2o1 ?
Ab BasE inh: -3.8; KSHV LANA nucl: 2.5

Results for CCCN1C(=O)/C(=N\OCC(=O)Nc2ccc3c(c2)OCO3)c2ccccc21 ?
Ab BasE inh: 3.2

How did O=C(CN1CCCCC1)N/N=C/c1ccc(Cl)cc1 do in these assays?
Ab BasE inh: -1.6; KSHV LANA nucl: 0.17

What do the screens show for `CC(C)(C(=O)Nc1ccc2c(c1)OCO2)C(=O)Nc1ccc2c(c1)OCO2`?
Ab BasE inh: -1.7; KSHV LANA nucl: 2.7

How did Ic1ccc(Nc2nc(Nc3ccccc3)nc(N3CCOCC3)n2)cc1 do in these assays?
Ab BasE inh: 0.2

Results for NC(=O)N/N=C/c1ccc(OC(=O)c2ccco2)cc1 ?
Ab BasE inh: 0.3; KSHV LANA nucl: 0.12

What do the screens show for `c1ccc2cc(Cn3ccnc3)ccc2c1`?
Ab BasE inh: 1.8; KSHV LANA nucl: -0.66

Results for O=C(NCCc1ccccc1)c1nnc(-c2ccc3c(c2)OCO3)o1 ?
Ab BasE inh: 1.1; KSHV LANA nucl: 0.47

Results for O=c1[nH]c(Nc2nc3ccccc3o2)nc2c1CCCC2 ?
Ab BasE inh: 3.1; KSHV LANA nucl: -0.19

What do the screens show for `O=C(Nc1nc2ccccc2[nH]1)C1CC(=O)N(Cc2ccccc2)C1` (stereo not given)?
Ab BasE inh: -3.7

How did CCN(Cc1ccc2c(c1)OCCO2)C(=O)c1ccc(=O)n(Cc2ccccc2)n1 do in these assays?
Ab BasE inh: 3.7

What do the screens show for `O=C1N/C(=C/c2ccsc2)C(=O)N1c1ccccc1`?
Ab BasE inh: -2.2; KSHV LANA nucl: 2.7

Results for CC(C)Nc1nc(Cl)nc(NCCO)n1 ?
Ab BasE inh: -2.3; KSHV LANA nucl: 1.4

Results for c1ccc(CC2=NNC(Cc3ccccc3)=NN2)cc1 ?
Ab BasE inh: 3.7; KSHV LANA nucl: 0.35

How did NNC(=O)c1ccc(Oc2cc(Cl)cc(Cl)c2)o1 do in these assays?
Ab BasE inh: 3.7

What do the screens show for `Cc1nc2cc(C(=O)O)ccc2n1-c1ccc(F)c(F)c1`?
Ab BasE inh: -2.2; KSHV LANA nucl: -1.1

What do the screens show for `O=C(Nc1nccs1)C1CCN(C(=O)c2ccc(Cl)cc2)CC1`?
Ab BasE inh: -1.5

Results for CCSc1nnc(NC(=O)CCC(=O)OC2CCC(C)C(C)C2)s1 (stereo not given) ?
Ab BasE inh: -4.1

How did N#Cc1c(N)ccn(Cc2ccccc2)c1=O do in these assays?
Ab BasE inh: 4.1; KSHV LANA nucl: -0.34

What do the screens show for `CCNC(=O)NC(=O)C(c1ccccc1)n1nc(C(=O)O)c2ccccc2c1=O` (stereo not given)?
Ab BasE inh: 2.7

What do the screens show for `COc1ccc(N2CCN(C(=O)c3ccc(CS(=O)c4ccccc4)o3)CC2)cc1` (stereo not given)?
Ab BasE inh: 0.2; KSHV LANA nucl: 0.17

Results for OC1CCN(c2cc(-c3ccccc3)nc3cc(-c4cccc(Cl)c4)nn23)CC1 ?
Ab BasE inh: -2.0; KSHV LANA nucl: 0.44

Results for O=S1(=O)CC2SC(=S)N(c3cccc(O)c3)C2C1 (stereo not given) ?
Ab BasE inh: 1.9; KSHV LANA nucl: -1.1

Results for CCOC(=O)/C(C#N)=C\c1ccc(N2CCOCC2)cc1 ?
Ab BasE inh: 49; KSHV LANA nucl: 0.34

What do the screens show for `C[C@@H]1CCC[C@H](C)N1`?
Ab BasE inh: -0.6; KSHV LANA nucl: 0.14

Results for COc1cc(/C=N/NC(=S)NCC2CCCO2)ccc1OC(=O)c1ccco1 (stereo not given) ?
Ab BasE inh: -2.7

Results for Cc1ccsc1C(=O)OCC(=O)Nc1sccc1C#N ?
Ab BasE inh: -30

Results for CC1=Nc2nc(N3CC(C)OC(C)C3)c(C#N)c3c4c(nc(c23)N1)N(c1ccccc1)C(=O)C4 (stereo not given) ?
Ab BasE inh: 3.4

Results for Cc1ccc(-c2c(O)c3cc(C)c(C)cc3c3oc(=O)sc23)cc1 ?
Ab BasE inh: 1.6

What do the screens show for `O=C(O)C1CCN(c2cnccn2)CC1`?
Ab BasE inh: 2.5; KSHV LANA nucl: -1.3

Results for COc1ccc(Cn2ccc3nc(C)c(C(=O)Nc4ccccc4)cc3c2=O)cc1 ?
Ab BasE inh: -1.2; KSHV LANA nucl: -0.46

Results for CS(=O)(=O)Nc1ccc(/C(N)=N/OC(=O)Nc2ccccc2)cc1 ?
Ab BasE inh: -0.4; KSHV LANA nucl: -0.67

What do the screens show for `O=C1C(C=NCc2ccco2)=C(O)c2ccccc21`?
Ab BasE inh: 1.7; KSHV LANA nucl: 0.045

Results for Cc1ccoc1C(=O)Nc1ccccc1C(=O)O ?
Ab BasE inh: 5.4; KSHV LANA nucl: -0.0085

Results for CCOC(=O)CCc1ccc(C(=O)C(F)(F)F)o1 ?
Ab BasE inh: 1.4; KSHV LANA nucl: 0.25

Results for Cc1ccc(NC(=O)C(OC(=O)c2c(C)noc2C)c2ccccc2)cc1Cl (stereo not given) ?
Ab BasE inh: 1.8

How did O=C(Nc1cc2ccccc2oc1=O)c1ccc(Cl)cc1 do in these assays?
Ab BasE inh: 1.5

What do the screens show for `Cc1ccccc1NC(=O)NC1CCN(C(C)C)CC1`?
Ab BasE inh: 0.6; KSHV LANA nucl: -0.38

How did C=CCOc1ccc(CNc2ccc3[nH]c(=O)[nH]c3c2)cc1 do in these assays?
Ab BasE inh: 2.0; KSHV LANA nucl: -1.4

Results for Cn1c(SCC(=O)N2c3ccccc3CCc3ccccc32)nnc1C1CC1 ?
Ab BasE inh: -0.4; KSHV LANA nucl: 0.6

Results for CCOC(=O)CSc1nnc(CNC(=O)Cc2ccccc2)n1-c1ccc(OC)cc1 ?
Ab BasE inh: 0.1; KSHV LANA nucl: 1.3

Results for Cc1c(C(=O)NCCCN2CCCCC2)oc2ccc3c(c12)C(O)CC(C)(C)O3 (stereo not given) ?
Ab BasE inh: -1.4; KSHV LANA nucl: -0.73

What do the screens show for `CC1=C(C)C(=O)C(N2CCN(Cc3ccccc3)CC2)=CC1=O`?
Ab BasE inh: -0.3

Results for CC1CCN(Cn2c(=S)oc3ccccc32)CC1 ?
Ab BasE inh: 11

Results for COc1ccc(CNC(=O)c2cnn3cc(Br)cnc23)cc1 ?
Ab BasE inh: -1.8; KSHV LANA nucl: -0.25

Results for CN(C(=O)CSc1nnnn1C)c1ccccc1 ?
Ab BasE inh: 2.3

What do the screens show for `Cc1cc(/C=C2/C(=O)NC(=S)N(Cc3ccco3)C2=O)c(C)n1C1CCCCC1`?
Ab BasE inh: -0.1; KSHV LANA nucl: 0.093

How did Cc1ccc(NC(=O)C2CCCN(S(=O)(=O)c3c(C)n[nH]c3C)C2)cc1 (stereo not given) do in these assays?
Ab BasE inh: 0.5; KSHV LANA nucl: 0.027

How did COC(=O)c1cc2c(ccn2-c2ccc(F)cc2)n1CC(=O)N1CC(C)CC(C)C1 (stereo not given) do in these assays?
Ab BasE inh: 1.3; KSHV LANA nucl: -1.1

Results for COc1ccc(S(=O)(=O)N(CC#N)Cc2ccco2)cc1OC ?
Ab BasE inh: 1.1; KSHV LANA nucl: 2.2

What do the screens show for `COc1ccc(C(=S)N2CCC(C)CC2)cc1`?
Ab BasE inh: -0.1

How did Cc1cccc(Nc2ncc3ncn(-c4cccc(C)c4)c3n2)c1 do in these assays?
Ab BasE inh: -0.6; KSHV LANA nucl: 0.44

How did Cc1ccc2cc(C#N)c(NCc3ccccc3)nc2c1 do in these assays?
Ab BasE inh: 1.9; KSHV LANA nucl: -0.0095

Results for Cc1ccccc1NC(=O)c1c(NC(=O)c2ccco2)sc2c1CCC2 ?
Ab BasE inh: 2.4; KSHV LANA nucl: -1.6

What do the screens show for `O=C(NCC1c2ccccc2CCN1C(=O)CN1CCOCC1)C1CCCCC1` (stereo not given)?
Ab BasE inh: 1.4; KSHV LANA nucl: -0.096

Results for Cn1cc(C(=O)NCC2COc3ccccc3O2)c(=O)c2cc(S(=O)(=O)N3CCCCC3)ccc21 (stereo not given) ?
Ab BasE inh: -0.4; KSHV LANA nucl: -0.1

What do the screens show for `Cc1noc(C)c1CSCC(=O)N1CCSC1=Nc1cccc(Cl)c1C`?
Ab BasE inh: -1.1

Results for CC1=C(C)[N+](=O)C2(O)CCCCC2(C)N1[O-] (stereo not given) ?
Ab BasE inh: 2.3; KSHV LANA nucl: 0.43

Results for CC(C)n1ncc2c(C(=O)Nc3cccc4ncccc34)cc(C3CC3)nc21 ?
Ab BasE inh: 2.9

Results for COc1ccc(-n2nnnc2-c2cnc(N)nc2C(F)(F)F)cc1 ?
Ab BasE inh: 3.0; KSHV LANA nucl: 0.75

How did CCOCCn1ccc2c(OCC(=O)NC3CCCCC3)cccc2c1=O do in these assays?
Ab BasE inh: 0.5; KSHV LANA nucl: -0.65

What do the screens show for `O=S(=O)(c1ccc(Cl)cc1)N(Cc1ccc(Cl)cc1)Cc1cccnc1`?
KSHV LANA nucl: -0.087

Results for CN1CCN(CCNc2nc(-c3ccccc3F)no2)CC1 ?
Ab BasE inh: 1.5; KSHV LANA nucl: 1.1

Arranged by count of non-hydrogen atoms (descending): part of the list above
Results for Cn1cc(C(=O)NCC2COc3ccccc3O2)c(=O)c2cc(S(=O)(=O)N3CCCCC3)ccc21 (stereo not given) ?
Ab BasE inh: -0.4; KSHV LANA nucl: -0.1

Results for CC(C)n1ncc2c(C(=O)Nc3cccc4ncccc34)cc(C3CC3)nc21 ?
Ab BasE inh: 2.9

How did CCOCCn1ccc2c(OCC(=O)NC3CCCCC3)cccc2c1=O do in these assays?
Ab BasE inh: 0.5; KSHV LANA nucl: -0.65

What do the screens show for `Cc1noc(C)c1CSCC(=O)N1CCSC1=Nc1cccc(Cl)c1C`?
Ab BasE inh: -1.1

Results for COc1ccc(-n2nnnc2-c2cnc(N)nc2C(F)(F)F)cc1 ?
Ab BasE inh: 3.0; KSHV LANA nucl: 0.75

Results for CN1CCN(CCNc2nc(-c3ccccc3F)no2)CC1 ?
Ab BasE inh: 1.5; KSHV LANA nucl: 1.1

Results for CC1=C(C)[N+](=O)C2(O)CCCCC2(C)N1[O-] (stereo not given) ?
Ab BasE inh: 2.3; KSHV LANA nucl: 0.43

The list continues.
What do the screens show for `O=C(O)CCCN1C(=O)c2ccccc2Sc2ncccc21`?
Ab BasE inh: 1.6; KSHV LANA nucl: 0.63

Results for O=c1oc2cc(O)ccc2cc1-c1ccc(F)cc1 ?
Ab BasE inh: -1.1; KSHV LANA nucl: -0.6

Results for O=C(O)c1cc(O)c(O)c(O)c1 ?
Ab BasE inh: -2.8; KSHV LANA nucl: 1.1&0.026

Results for NC(=O)CCc1c[nH]c2ccccc12 ?
Ab BasE inh: 4.1; KSHV LANA nucl: 0.41

How did CC(=O)N1CCN(C(=O)c2cc(C)oc2C)CC1 do in these assays?
Ab BasE inh: 1.9

How did CC(OC(=O)c1ccc(NS(=O)(=O)c2cccs2)cc1)c1nc2scc(-c3cccs3)c2c(=O)[nH]1 (stereo not given) do in these assays?
Ab BasE inh: 1.4

Results for CC(C(=O)OCc1ccc(F)cc1)N1C(=O)c2ccccc2C1=O (stereo not given) ?
Ab BasE inh: -1.0

What do the screens show for `Cc1ccc(SCC(=O)Nc2nc(-c3cccs3)cs2)cc1`?
Ab BasE inh: 0.5

What do the screens show for `O=C(Oc1ccc(OC(F)(F)F)cc1)C1=Cc2cc(Cl)ccc2OC1`?
Ab BasE inh: 1.4

How did NC(=S)NC1CCCC1 do in these assays?
Ab BasE inh: 1.5

Results for Cc1cccc(C)c1NC(=O)CO/N=C/c1ccccc1O ?
Ab BasE inh: 2.9

Results for COC(=O)Cn1ncc(Cl)c(Cl)c1=O ?
Ab BasE inh: -0.8

How did FC(F)(F)c1cnc(N2CCc3ccccc3C2)c(Cl)c1 do in these assays?
Ab BasE inh: -3.0

What do the screens show for `CCn1c(-c2ccccc2)c(C(=O)Cn2cc(C)sc2=N)c2ccccc21`?
Ab BasE inh: -5.8

What do the screens show for `Cc1nc(SC(C(=O)c2ccccc2)c2ccccc2)nc2ccccc12` (stereo not given)?
Ab BasE inh: 3.5

How did O=c1[nH]c(CN2CCN(S(=O)(=O)c3ccc4c(c3)OCCO4)CC2)nc2ccsc12 do in these assays?
Ab BasE inh: -4.5

How did Cc1cc(C)c2nc(-c3ccco3)cc(C(=O)O)c2c1 do in these assays?
Ab BasE inh: 2.7; KSHV LANA nucl: 0.17

Results for O=C(c1cnn(C(=O)CN2c3cccc4cccc(c34)S2(=O)=O)c1)c1ccccc1O ?
Ab BasE inh: 0.5

Results for COC(=O)c1c(C)cc(O)c(C)c1O ?
Ab BasE inh: 3.7; KSHV LANA nucl: -0.14

Results for COc1ccc(CN(CCC(c2ccccc2)c2ccco2)C(C)=O)cc1 (stereo not given) ?
Ab BasE inh: -0.4

Bioassay records from PubChem.

An excerpt; the hit share may differ from the screen's.
